Bioassay records: PubChem, ICCB-Longwood Screening Facility, Harvard Medical School
Polio RdRp inh: poliovirus RdRp elongation inhibitors, primary screen, biochemical, fluorescence polarization, total intensity | Genome polyprotein (Poliovirus type 1 (strain Mahoney)), P03300 | poliovirus polymerase elongation; stronger effect = lower value | % elongation, % (compound at 16.7 µg/mL) | 0.66% of 150,000 active | AID 588519, 2011; in the data active = % elongation below about 90%; note: some results filed as inactive read as strong as hits
Target sequence (P03300 1749-2209 limits assumed): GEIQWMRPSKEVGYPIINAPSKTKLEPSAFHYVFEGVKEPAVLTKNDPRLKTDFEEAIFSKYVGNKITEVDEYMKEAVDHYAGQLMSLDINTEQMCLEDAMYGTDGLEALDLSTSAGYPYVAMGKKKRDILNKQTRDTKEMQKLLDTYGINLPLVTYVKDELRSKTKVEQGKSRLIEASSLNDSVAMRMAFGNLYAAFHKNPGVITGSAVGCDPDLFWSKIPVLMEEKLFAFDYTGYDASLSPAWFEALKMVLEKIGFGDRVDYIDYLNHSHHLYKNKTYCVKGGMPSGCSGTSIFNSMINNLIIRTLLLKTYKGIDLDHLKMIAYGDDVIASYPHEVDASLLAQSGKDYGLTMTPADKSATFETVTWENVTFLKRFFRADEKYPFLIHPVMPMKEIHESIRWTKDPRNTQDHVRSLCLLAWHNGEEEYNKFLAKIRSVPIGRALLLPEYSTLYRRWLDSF
Mtb MenB inh: M. tuberculosis MenB inhibitors, primary screen, biochemical, absorbance. MenB enzyme assay, absorbance read-out; some hits fall short of the stated cut. inhibition, %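 (about 12 µg/mL by stock and volumes)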. 0.43% of 100,000 active. 1,4-dihydroxy-2-naphthoyl-CoA synthase (Mycobacterium tuberculosis (strain ATCC 25618 / …;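 active = mean of two replicates above 30%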;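 note: 0% = no compound and 100% = wells with inactive enzyme; the first replicate is given; strong numbers were not always called active; inactives centre near -10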
MbtI inh: MbtI salicylate synthase inhibitors, primary screen, biochemical, fluorescence intensity; P9WFX0; purified MbtI enzyme, fluorescence intensity read-out; inhibition, %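 (about 17 µg/mL by stock and volumes)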; 0.89% of 100,000 active; AID 493033, 2011;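 active = above 50% in both replicates, above 80% if mildly self-fluorescent; inactive = the rest, strongly fluorescent compounds included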;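 note: 0% = mean of negative and 100% = mean of positive controls; one replicate is shown; some compounds called inactive have numbers as strong as hits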
Target sequence (P9WFX0 whole entry, looked up): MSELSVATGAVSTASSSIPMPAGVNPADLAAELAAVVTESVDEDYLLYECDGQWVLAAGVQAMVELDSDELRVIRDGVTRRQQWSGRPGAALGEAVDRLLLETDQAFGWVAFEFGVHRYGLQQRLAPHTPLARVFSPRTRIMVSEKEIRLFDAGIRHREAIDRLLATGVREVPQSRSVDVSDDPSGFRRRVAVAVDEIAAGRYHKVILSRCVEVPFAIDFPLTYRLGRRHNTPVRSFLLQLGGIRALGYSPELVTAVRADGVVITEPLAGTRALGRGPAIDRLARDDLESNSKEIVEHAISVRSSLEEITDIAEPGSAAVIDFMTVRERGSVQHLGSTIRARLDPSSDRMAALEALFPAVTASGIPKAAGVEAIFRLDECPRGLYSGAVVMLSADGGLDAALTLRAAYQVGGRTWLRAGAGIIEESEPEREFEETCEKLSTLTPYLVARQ
Polio RdRp inh intensity: also measured in Polio RdRp inh; calls as there; % elongation; measured here: total intensity read-out; formula for this scale not given here;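 total fluorescence in place of polarization; lower means less elongation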
Active calls of the source: *; . = not tested or not shown; & = joins results of further samples.

structure,Polio RdRp inh,Polio RdRp inh intensity,Mtb MenB inh,MbtI inh
COc1cc2c(=O)n(CC3CCCO3)c(=O)n(CC(=O)c3cccc(Br)c3)c2cc1OC (stereo unspecified),101,100,2,-8
O=C(N1CCCC1)N1c2ccccc2C=Cc2ccccc21,102,104,-16,5
COC(=O)c1cc2sccc2n1C(C)C(=O)Nc1ccccc1OC (stereo unspecified),103,102,-49,-6
O=C1N=C(N2CCN(C(=O)c3cc4ccccc4oc3=O)CC2)S/C1=C\c1cccs1,100,97,-20,.
CC(C)NC(=O)C(C)n1ncn2cccc2c1=O (stereo unspecified),104,108,-1,-9
N#Cc1ccccc1/C=C/C(=O)N(CCO)CC(O)c1ccccc1 (stereo unspecified),103,101,-32,5
COc1ccccc1NC(=O)c1ccc(N)cc1,101,101,.,2
C/C=C/C(=O)OCc1ccccc1Cl,103,106,-11,-16
O=c1c(-c2ccccc2)c(O)c2cccc3c4ccccc4n1c23,97,90,-6,65
Cc1ccc(C(=O)N(c2ccccn2)C(C)c2ccco2)cc1 (stereo unspecified),102,108,.,-15
O=C(COC(=O)C1CCCCC1)Nc1ccc(N2CCCCC2)cc1,101,106,.,-16
Cc1oc(-c2ccccc2Cl)nc1CS(=O)CC(=O)NC1CC1 (stereo unspecified),101,98,-18,9
Cc1ccccc1NC(=O)COc1ccc2c(c1)OC(C)(C)CC2=O,106,110,6,-7
CC(OC(=O)c1nn(C)c(=O)c2ccccc12)c1ccccc1 (stereo unspecified),106,106,-26,-2
Cc1oc(-c2ccccc2)nc1C(=O)NC12CC3CC(CC(C3)C1)C2,101,102,-16,3
CN1C(=O)c2[nH]nc(-c3ccccc3)c2C1c1cccnc1 (stereo unspecified),102,98,14,3
CCC(CO)n1c(SCc2ccc(C#N)cc2)nc2cc(OC)c(OC)cc2c1=O (stereo unspecified),105,104,-22,-11
COC(=O)c1cccc(-n2c(CCC(=O)O)ccc2-c2ccccc2)c1,101,102,-11,-18
COc1ccc(Br)cc1-c1noc(C)n1,100,101,-7,-2
N=C1C(c2nc3ccccc3s2)=C(O)CN1/N=C/c1ccc(-c2ccc(S(=O)(=O)Nc3ncccn3)cc2)o1,98,108,-62,-40
FC(F)(F)C1(C(F)(F)F)N=C(c2cccnc2)N(c2ccccc2)N1,103,105,-11,24
c1ccc(-c2nn[nH]n2)cc1,102,105,.,-3
CCOC(OCC)P(=O)(c1ccccc1)c1ccccc1,99,100,-31,9
c1nc2c3sc4nc(N5CCOCC5)c5c(c4c3ncn2n1)CCC5,100,101,28*,1
CCOC(=O)C1CCN(C(=O)c2ccc(C)cc2)CC1,103,99,-1,5
N#Cc1ccc(CN2CCc3ccccc3C2)cc1,101,103,6,-4
NNC(=O)c1nc(-c2ccccc2)cc(-c2ccccc2)n1,103,109,-32,4
O=S(=O)(c1ccc(Br)s1)N1CCCC1c1ccc2c(c1)OCCCO2 (stereo unspecified),103,104,-17,2
N#C/C(=C\c1ccc(N2CCOCC2)o1)C(=O)NCC1CCCO1 (stereo unspecified),129,172,23,16
O=C1OC(c2ccccc2)=N/C1=C\c1cn(-c2ccccc2)nc1-c1cccs1,104,105,-3,4

Full records, looked up by structure. Screens in order: Polio RdRp inh | Polio RdRp inh intensity | Mtb MenB inh | MbtI inh
`O=C1OC(c2ccccc2)=N/C1=C\c1cn(-c2ccccc2)nc1-c1cccs1` across the screens: 104 | 105 | -3 | 4
`c1ccc(-c2nn[nH]n2)cc1` across the screens: 102 | 105 | . | -3
`CCOC(=O)C1CCN(C(=O)c2ccc(C)cc2)CC1` across the screens: 103 | 99 | -1 | 5
`CCOC(OCC)P(=O)(c1ccccc1)c1ccccc1` across the screens: 99 | 100 | -31 | 9
`c1nc2c3sc4nc(N5CCOCC5)c5c(c4c3ncn2n1)CCC5` across the screens: 100 | 101 | 28* | 1

The list goes on.
structure,Polio RdRp inh,Polio RdRp inh intensity,Mtb MenB inh,MbtI inh
OCCNc1ncnc2ccccc12,103,97,-18,6
CC(=O)Nc1ccc(SC2CCOC2=O)cc1 (stereo unspecified),104,105,-2,19
COc1ccc(NC(=O)CN2CCN(S(=O)(=O)/C=C/c3ccccc3)CC2)cc1,104,108,-13,-2
COc1ccc(CNC(=O)c2ccc(OC)cc2OC)cc1,102,104,6,.
Cc1cccc(-n2c(SCC(N)=O)nc3ccccc3c2=O)c1,102,101,-3,12
Cc1ccc(C(C)C)c(OCC(=O)Nc2nonc2NC(=O)COc2cc(C)ccc2C(C)C)c1,102,96,11,-1
N#CCc1ccc(NC2(C#N)CCCCC2)cc1,105,103,-18,-11
Cc1cc(O)c(C=Nc2ccc(F)cc2)c(=O)o1,101,105,.,1
CC1(C)OC(CO)C(CO)O1 (stereo unspecified),100,103,10,-1
Cc1c(C#N)c(NC(=O)CN2CCCCC2C)n(Cc2ccco2)c1C (stereo unspecified),103,105,-9,-6
FC(F)(F)c1cc2[nH]c(=S)[nH]c2cc1Cl,95,107,-29,35
Cc1ccnc(NC2c3ccccc3C(=O)N2Cc2ccccc2)c1 (stereo unspecified),102,103,4,2
Cc1ccc(S(=O)(=O)c2nc(-c3ccccc3Br)oc2N(C)C)cc1,103,98,-14,5
O=C(NCCO)c1ccc2nc(-c3ccco3)c(-c3ccco3)nc2c1,90,94,-132,36
CCOC(=O)c1ccc(N=C2SC(C(=O)O)CC(=O)N2Cc2cccs2)cc1 (stereo unspecified),102,105,-31,-3
c1ccc(-c2noc(CNC3CCCCC3)n2)cc1,101,103,2,-7
O=C(CC1SC(=O)NC1=O)Nc1cccc(NC(=O)CC2SC(=O)NC2=O)c1 (stereo unspecified),99,101,-2,-2
Cc1cc(Nc2ccccc2)nc2cc(O)ccc12,99,104,-24,121
Cc1ccc(OCc2nc(C#N)c(NCCCN(C)C)o2)cc1,101,99,-19,-14
N#Cc1nc2[nH]c(-c3ccccc3)cc(=O)n2c1C#N,90*,91*,-4,105
O=C(COC(=O)C12CCC(=O)N1c1ccccc1S2)c1c[nH]c2ccccc12 (stereo unspecified),103,108,6,-3
CCc1c(O)nc(SCC(=O)NC(C)(C)C)n(-c2ccc(F)cc2)c1=O,103,104,3,.
CCCCC/C=C\C/C=C\C/C=C\CCCCCCC(=O)O,102&101,104&104,5,2
Cc1cc(SCC(=O)N(C)C2CCS(=O)(=O)C2)nc2ccccc12 (stereo unspecified),105,100,-6,70
CNC(=S)NCc1ccc2[nH]c3c(c2c1)CCCC3,98,99,-24,-1
Cc1ccc(NC(=O)CN(Cc2ccco2)Cc2ccccc2O)cc1C,110,110,-13,-3
Cc1ccccc1N1C(=O)NC(=O)/C(=C\C=C\c2ccco2)C1=O,104,110,-129,66*
N#CC(c1ccc(F)cc1)N1CCOCC1 (stereo unspecified),102,105,-19,-9
CCC1CCCCN1C(=O)Cn1c(=O)n(CCC(=O)NCc2ccco2)c(=O)c2sccc21 (stereo unspecified),102,101,-25,-12
Cc1sc2ncn(C(C)C(=O)O)c(=O)c2c1C (stereo unspecified),106,109,-12,.
COCCNC(=S)N1CCn2c1nc1ccccc12,91,89,-3,84*
CCCc1ccc(/C(=N/O)C(=O)O)s1,101,106,-10,.
CC1(C)CCC[C@]2(C)C3CC(=O)OC3CCC12 (stereo partly specified),100,101,-17,5
COC(=O)c1ccc(CSc2nnc(-c3ccco3)n2C)o1,102,104,-1,7
CCc1ccc(NC(=O)C2CCN(C(=O)N3CCOc4ccccc43)CC2)cc1,98,101,0,-9
Cc1cccc(OCc2nnc(SCC(=O)NC34CC5CC(CC(C5)C3)C4)o2)c1,102,102,-19,-4
CCN(CC)C(=O)Nc1ccc(I)cc1,102,105,-8,-25
CCCC(=O)N(Cc1ccccc1)Cc1nc2ccccc2c(=O)[nH]1,101,103,-8,3
Cc1ccc2c(Cl)cc(Cl)c(OCC(=O)Nc3c(F)cccc3F)c2n1,101,103,.,-3
Cc1ccc(S(=O)(=O)N2CC=C(C(=O)NC3CCCCCC3)CC2)cc1,102,104,-7,-3
CCOC(=O)c1c(C)n(-c2ccccc2)c2ccc3c(c12)CN(Cc1ccccc1)CO3,102,101,-16,.
CCSc1nnc(SCC(=O)c2c[nH]c3ccccc23)s1,114,131,3,-1
O=C(O)c1ccc(/C=C2\COc3ccccc3C2=O)cc1,105,99,-29,9
CN(C)c1ccc2c3c(ccc(N(C)C)c13)COC2,100,96,.,-13
Cc1cc(C)c(N2CC(=O)NCC2=O)c(C)c1,101,102,8,-8
O=C(O)C1CC(O)CN1S(=O)(=O)c1ccc(Br)cc1 (stereo unspecified),101,106,-13,-12
CCC(CC)NC(=O)Cc1cccs1,100,103,-11,-2
Cc1nc(-c2ccccc2)sc1C(=O)N1CCC(C(N)=O)CC1,103,102,-22,-10
CSc1c(-c2ccccn2)c(N)nn1C(=O)C1CCC1,105,100,-7,-12
C=CCNC(=O)C1CCC(C(=O)NCC=C)CC1 (stereo unspecified),101,102,-5,1

Next results follow:
structure,Polio RdRp inh,Polio RdRp inh intensity,Mtb MenB inh,MbtI inh
CCCC(/N=C/c1cc(Cl)ccc1O)/N=C/c1cc(Cl)ccc1O,101,101,-17,-19
CCN1CCN(S(=O)(=O)c2cc(OCC(=O)NC3CCCCC3)c(C)cc2Cl)CC1,99,103,0,-5
COC(=O)c1ccccc1N(C)S(C)(=O)=O,108,109,-2,.
O=C(Nc1ccccc1)Oc1ccccc1N1CCCCC1,104,111,-4,-9
CCc1ccc2nc(C(C#N)C3=NS(=O)(=O)c4ccccc43)[nH]c(=O)c2c1 (stereo unspecified),110,103,-101,30
Cc1ccc(C)c(C(=O)COC(=O)c2c(-c3ccccc3)noc2C)c1,105,104,-19,-3
N#Cc1c(N)n[nH]c1CCCCCN,102,119,-9,-9
COc1cc(C2C(C(=O)c3ccco3)=C(O)C(=O)N2CCc2ccccc2)ccc1O (stereo unspecified),100,102,-45,3
COc1ccc(S(=O)(=O)Nc2cccc(-c3ccc(N4CCOCC4)nn3)c2)c(OC)c1,99,101,4,55
COC(=O)CC1C(=O)NCCN1C(=O)CSc1nnnn1-c1ccc(Cl)cc1 (stereo unspecified),103,107,-10,-12
O=C(Nc1nccs1)C1CCCN(C(=O)c2cnn(-c3ccccc3)c2-n2cccc2)C1 (stereo unspecified),101,104,-4,-7
CCCCN1Cc2c(n(CC(N)=O)c3cc(-c4ccccc4)nn3c2=O)C1=O,100,101,-6,33
CC(=S)Nc1ccc(C(F)(F)F)cc1,100,103,10,23
CCN1/C(=C/c2ccc3cc(C)ccc3[n+]2C)Sc2cc(OC)ccc21,112,103,-28,2
COc1ccccc1C(=O)Nc1cccc(Cl)c1,101,100,0,-4
COc1cccc(OCC(=O)NC(C(=O)O)C(C)C)c1 (stereo unspecified),97,103,-23,-4
CC(=O)OCC[N+](C)(C)C,100,102,18,-8
CN(Cc1ccc(C(F)(F)F)cc1)C(=O)C1CC(=O)N(Cc2ccco2)C1 (stereo unspecified),106,105,-13,-4
Cc1cc(C(=O)OCC(=O)NC2CCCCC2)c(C)o1,101,96,.,-9
O=c1cc(CN2CCCCC2)nc2sccn12,106,115,1,118
O=C(Nc1ccc(O)c(C(=O)O)c1)c1ccc(Br)cc1,99,101,-42,11
COCc1cc(C)nc(N)c1C#N,97,95,-16,105
CCCN1C(=O)/C(=C/c2ccc(CC)cc2)NC1=S,100,107,-54,-14
Cc1ccc(-n2c(=O)c3cccnc3n2CC(=O)NCCCc2ccccc2)cc1C,103,102,11,18
Cc1cccc(N(CC(=O)NCc2ccco2)S(=O)(=O)c2ccccc2)c1C,100,102,-37,2
O=C(/C=N/O)Nc1ccc2c(c1)OCCO2,94,107,-17,-10
Cc1ccc(/C=C/C(=O)OCc2nc(N)nc(Nc3ccccc3C)n2)o1,103,98,-32,-1
O=C(Nc1ccccc1C(F)(F)F)c1ccncc1,104,100,-16,-7
Cc1ccc(S(=O)(=O)N(C)c2nc3ccccc3n3c(-c4ccc(Br)o4)nnc23)cc1,101,103,1,12
CC(C)(CC(=O)Nc1ccc(F)cc1)Sc1ccc(Cl)cc1,106,116,6,1
O=C(NCc1cccnc1)C(F)(F)C(F)(F)C(F)(F)F,101,104,11,1
O=C(Nc1cccc(NC(=O)C2CCCO2)c1)c1ccco1 (stereo unspecified),106,101,-74,5
CCN1CCN(S(=O)(=O)c2ccc(Cl)c(C(=O)NCc3nc4ccccc4[nH]3)c2)CC1,106,108,-14,6
O=C(NCc1noc2ccccc12)Nc1cccc(C(F)(F)F)c1,101,99,3,-12
COC(=O)c1ccc(OC(=O)c2ccc3c(c2)OCCO3)cc1,95,109,2,-10
